gsp agonist: activates gsp, the McCune-Albright syndrome mutation; gsp mutant cells, cAMP HTRF, 30 min; control for the full effect not named in the record; Potency, µM (top dose mostly 76.9 µM), without a hit: at the top dose activation (cAMP increase), most hits filed as activators; 340,000 tested, 0.13% active; active = well fitted activation curve with a large enough effect; inconclusive = small, poorly fitted or top-dose-only effect, or another doubt; inactive = no such curve, though single readings can be large or run the other way; cell line not stated here;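 note: phosphodiesterase inhibitor Ro 20-1724 added with compounds to block cAMP breakdown; potency is the fitted concentration of half-maximal effect; nearly all actives have a fitted effect of over 60% in size; about a fifth of the inactives were tested at one dose only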
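Cells in DMEM/10% FBS with G418 were pretreated with compounds in DMSO plus […] (300 uM stock) for 30 min at 37C. cAMP was measured by HTRF (cAMP-d2 plus anti-cAMP antibody-K) after 30 min at room temperature.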
TRPML1 ag: agonists of human TRPML1 channel. Q9GZU1. TRPML1-expressing cells, Ca2+ dye fluorescence, FDSS; host cell line not named in the record; reference of the full effect not given here. activation, % (test concentration not listed). 410,000 tested, 0.12% active. AID 624414; in the data active = activation above about 50%; inconclusive = about 30% to 50%; inactive = below about 30%; note: 0% is about no effect; the text of the record puts the active cut at 80%
Target sequence (Q9GZU1 whole entry, looked up): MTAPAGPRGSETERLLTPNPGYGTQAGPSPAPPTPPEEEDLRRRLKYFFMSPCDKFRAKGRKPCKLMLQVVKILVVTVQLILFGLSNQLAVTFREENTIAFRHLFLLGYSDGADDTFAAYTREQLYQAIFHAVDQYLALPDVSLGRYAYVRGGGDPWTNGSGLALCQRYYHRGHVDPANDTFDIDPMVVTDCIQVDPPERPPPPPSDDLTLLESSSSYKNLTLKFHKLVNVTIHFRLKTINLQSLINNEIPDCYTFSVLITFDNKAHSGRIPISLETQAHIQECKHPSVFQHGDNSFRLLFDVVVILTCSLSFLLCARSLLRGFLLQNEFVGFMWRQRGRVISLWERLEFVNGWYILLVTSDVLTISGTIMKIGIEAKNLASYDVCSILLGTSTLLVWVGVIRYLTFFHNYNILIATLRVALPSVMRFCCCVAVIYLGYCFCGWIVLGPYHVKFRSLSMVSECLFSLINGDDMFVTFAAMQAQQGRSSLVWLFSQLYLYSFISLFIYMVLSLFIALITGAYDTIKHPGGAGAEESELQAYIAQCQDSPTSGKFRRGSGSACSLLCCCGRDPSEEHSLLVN
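In this qHTS format, compounds were pin-transferred onto Ca8-dye-loaded TRPML1-DL cells induced with Tet overnight, and intracellular Ca2+ fluorescence was recorded kinetically for 110 s after a 10 s baseline. A subsequent 4uM final 54-4 (EC80) addition followed by a second 110 s read served as the antagonist phase.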
TRPML1 inh: blocks the human TRPML1 channel | Q9GZU1 | TRPML1-inducible cells, Ca2+ dye fluorescence, FDSS; active compounds read low; inhibition of EC80 agonist-evoked calcium signal | activity change, negative = inhibition, % (no concentration beside the values) | 390,000 tested, 0.02% active; in the data active means activity change below about -50%; inconclusive means about -30% to -50%; inactive means above about -30%;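 note: stimulus is agonist 54-4 at its EC80 concentration; % is set by controls: 0 for no effect and ±100 for the full control effect; compound concentration not given in the record; the text of the record puts the active cut at -80%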
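Tet-induced TRPML1-DL cells loaded with Ca8 no-wash calcium dye were read kinetically on FDSS. Compound addition was followed by EC80 agonist 54-4 (4 uM final); inhibition was read over 110 s.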
gsp antag: gsp mutant antagonism; gsp-mutant cells, cAMP HTRF, 30 min; control for the full effect not named in the record; Potency, µM (series often up to 76.9 µM), for inactives: at the highest dose activity change, negative = inhibition, usual class: inhibitors; 340,000 tested, 0.4% active; AID 624288; active = falling curve of any shape with a large fitted effect; inconclusive = falling curve, mostly with a smaller effect; inactive = flat or rising curve; cell line not stated here;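 note: intracellular cAMP measured with PDE inhibitor Ro 20-1724 present during compound exposure; potency is the fitted concentration of half-maximal effect; % is set by controls: 0 for no effect and ±100 for the full control effect; nearly all actives have a fitted effect of over 65% in size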
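Cells in G418 medium, seeded 16-24 h, 37C; buffer exchange to DPBS + 1 mM CaCl2, 0.5 mM MgCl2, 0.05% BSA; cpds in DMSO + […] (300 uM stock), 30 min 37C; HTRF cAMP detection.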
ClpP mod: qHTS Assay for Activators of ClpP; ATP-dependent Clp protease proteolytic subunit (Bacillus subtilis (strain 168)), P80244; purified B. subtilis ClpP, FRET peptide cleavage, 20 min; Potency, µM (top dose mostly 57.5 µM), without a hit: top-dose activity change, negative = active; 340,000 tested, 1.9% active; AID 651965, 2013; active = well fitted falling curve with a large enough effect; inconclusive = small, poorly fitted or top-dose-only effect; inactive = no such curve, though single readings can be large or run the other way; note: potency is the fitted concentration of half-maximal effect; the source files actives as falling curves though it sought activators and does not explain the sign; nearly all actives have a fitted effect of over 65% in size; many hits overshoot -100%
Target sequence (P80244 whole entry, looked up): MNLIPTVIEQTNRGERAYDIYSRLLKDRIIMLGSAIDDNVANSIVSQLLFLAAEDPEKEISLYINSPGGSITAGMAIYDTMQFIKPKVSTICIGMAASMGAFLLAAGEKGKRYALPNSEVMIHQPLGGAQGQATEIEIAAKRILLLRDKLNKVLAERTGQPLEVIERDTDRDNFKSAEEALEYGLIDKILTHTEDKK
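ClpP 10 microg/mL final, pH 8 Tris/KCl buffer with BSA, glycerol, Tween-20; compound pinned in; FRET-FV substrate; RT 20 min; Ex320/Em430; ΔFRET vs ADEP 5.8 microM, DMSO, no enzyme.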
Menin-MLL FL inh: menin-MLL binding inhibition, fluorescein peptide | AID 1766 | Fluorescence polarization, fluorescein-MLL peptide displacement from menin | FP activity change, % at 61.4 µM | 290,000 tested, under 10 active; inconclusive = falling polarisation curve, or a change in total fluorescence; inactive = total fluorescence flat and polarisation flat or rising; no compound was filed as active; the % refers to the polarisation; negative = inhibition;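 note: % of control where 0% means no effect; inhibitors lower the polarisation; unlabelled MLL peptide was the positive control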
* hit, by the source's call; ? = inconclusive; . = not tested or not shown; [ ] = remark or other dose.

canonical_smiles	gsp agonist	TRPML1 ag	TRPML1 inh	gsp antag	ClpP mod	Menin-MLL FL inh
CCOC(=O)CSc1ccc(C(=O)NCCCN2CCOCC2)cc1[N+](=O)[O-]	2%	0.8	5	-8%	-1.9%	-5.3
CCCCC(=O)NC(c1ccccc1Cl)c1ccc2cccnc2c1O (configuration not stated)	-78%[inhibitor]	-0.1	-5	-4%	-0.6%	-2.0
CCOCCCNC(=O)c1c[nH]c2cc(OC)ccc2c1=O	4%[15.4 µM]	0.2	9	-16%	1.2%	-2.6
Nc1nc2ccccc2n1Cc1ccc(Cl)c(Cl)c1	-48%[inhibitor]	-0.4	-13	0%	.	-4.6
CCc1cc(=O)oc2c(C)c(O[C@@H]3O[C@H](CO)[C@@H](O)[C@H](O)[C@H]3O)ccc12	-11%[15.4 µM]	-0.3	7	13%	28µM*	2.0
CN(C)/C=C1\SC(=S)N(N2C(=O)C3C4C=CC(C4)C3C2=O)C1=O (configuration not stated)	1%[15.4 µM]	1.8	3	.	.	-1.5
CCN(CC)c1ccc(NC(=O)CSc2nc3ccccc3c(=O)n2-c2cc(S(=O)(=O)N(C)C)ccc2C)cc1	-14%	-0.3	6	6%	-0.6%	1.7
COc1cc(Cc2cc(N)nc(N)n2)cc(OC)c1OC	16%	0.5	-1	-5%	.	-3.2

Of the compounds above, two contain two or more sulfur atoms.
canonical_smiles	gsp agonist	TRPML1 ag	TRPML1 inh	gsp antag	ClpP mod	Menin-MLL FL inh
CN(C)/C=C1\SC(=S)N(N2C(=O)C3C4C=CC(C4)C3C2=O)C1=O (configuration not stated)	1%[15.4 µM]	1.8	3	.	.	-1.5
CCN(CC)c1ccc(NC(=O)CSc2nc3ccccc3c(=O)n2-c2cc(S(=O)(=O)N(C)C)ccc2C)cc1	-14%	-0.3	6	6%	-0.6%	1.7

An excerpt from above, limited to gsp antag, Menin-MLL FL inh and TRPML1 ag.
Compound	gsp antag	Menin-MLL FL inh	TRPML1 ag
Nc1nc2ccccc2n1Cc1ccc(Cl)c(Cl)c1	0%	-4.6	-0.4
CCOC(=O)CSc1ccc(C(=O)NCCCN2CCOCC2)cc1[N+](=O)[O-]	-8%	-5.3	0.8
CCOCCCNC(=O)c1c[nH]c2cc(OC)ccc2c1=O	-16%	-2.6	0.2
COc1cc(Cc2cc(N)nc(N)n2)cc(OC)c1OC	-5%	-3.2	0.5

(further entries)
canonical_smiles	gsp agonist	TRPML1 ag	TRPML1 inh	gsp antag	ClpP mod	Menin-MLL FL inh
O=c1n(Cc2cccc(F)c2)c2ccccc2c2nc(-c3ccccc3)nn12	.	1.1	12	.	-14%	.
O=C(COc1c(Cl)cccc1Cl)Nc1ccccc1N1CCCC1	?	0.0	13	-10%	-1.5%	.
CCN(CC(=O)Nc1c(F)cccc1F)C(=O)CCNC(=O)c1ccc([N+](=O)[O-])cc1	2%	-0.2	5	12%	1.2%	.
COc1ccc(C(=O)N(CCCO)Cc2cc3c(C)ccc(C)c3[nH]c2=O)cc1OC	3%	-1.4	6	7%	-27%	-1.2
CCCCC(=O)N/N=C/c1sccc1C	-8%[15.4 µM]	-0.7	11	10%	0.8%	50[activator]
Cc1csc(NC(=O)c2cc(-c3ccco3)nc3ccccc23)n1	-226%[inhibitor]	0.0	44	-14%	-15%	35[activator]
COc1ccc(C2=NOC(C(=O)NCc3cccs3)C2)cc1 (configuration not stated)	-11%	-0.8	8	2%	-0.7%	1.8
Fc1ccc(Nc2nc(N3CCOCC3)nc(N3CCOCC3)n2)cc1	-61%[inhibitor]	-0.5	26	-4%	0.1%	.
O=C(Nc1ccc2c(c1)OCO2)c1ccc(N2CCCC2)c([N+](=O)[O-])c1	28%	0.2	-5	-10%	-2.3%	-0.4
Cc1ccc(NS(=O)(=O)c2ccc3c(c2)CCC(=O)N3)cc1	3%	1.0	12	6%	1.5%	.
COc1ccc(Cl)cc1-c1n[nH]c(=S)n1C1CCCCC1	1%	1.4	-3	-3%	-3.7%	0.9
O=C(O)CCC(=O)N1N=C(c2c(-c3ccccc3)c3cc(Cl)ccc3[nH]c2=O)CC1c1cccs1 (configuration not stated)	-99%[inhibitor]	1.5	31	-13%	4.1%	4.0
CC(C)NC(=S)Nc1ccc2cn[nH]c2c1	18%	0.7	-4	10%	-5.6%	-1.0
COc1ccc(NC(=O)c2cc(SC)ccc2Cl)cc1	-25%	-0.1	3	12%	0.7%	4.1
CCOC(=O)c1ccc(NC(=O)C2CC(=O)NC(=Nc3ccc(C)c(C)c3)S2)cc1 (configuration not stated)	.	1.2	2	.	-6.3%	.
O=C(c1cc(-c2ccccc2)on1)N1CCN(Cc2ccc3c(c2)OCO3)CC1	-29%	1.2	1	-9%	0.0%	1.4
CCOC(=O)/C=c1\s/c(=C\c2ccc(C#N)cc2)c(=O)n1CC(=O)Nc1cccc(C)c1C	?	-0.6	-8	-2%	-0.9%	-0.5
CC(C)(C)C(=O)NCCN1CCN(C(=O)C(C)(C)C)CC1	-4%	-0.2	17	2%	0.8%	-1.4
COc1ccc(CC(=O)Nc2ccccc2N2CCCC2)cc1	18%	0.2	-5	-7%	-1.9%	.
COc1ccc(N(CC(=O)NN=C2CCCCCCC2)S(=O)(=O)c2ccccc2)cc1Cl	-3%	-0.4	-4	4%	-3.6%	1.1
CCOC(=O)C1CCN(S(=O)(=O)c2ccc(OC)c(C(=O)N3CCCCC3)c2)CC1	7%[15.4 µM]	0.0	26	4%	.	0.5
Cc1cc(=O)[nH]c(/N=C(\N)Nc2ccc3c(c2)OCCO3)n1	29%	1.2	-12	4%	.	-2.4
Cn1ncc2c(Nc3cc(C(F)(F)F)ccc3Cl)ncnc21	.	-0.1	11	.	-4.4%	.
NS(=O)(=O)c1ccc(NC(=O)CNC(=O)c2ccc3c(c2)OCO3)cc1	26%	-0.3	3	6%	.	.

Ordered by SMILES length (descending): part of the list above.
canonical_smiles	gsp agonist	TRPML1 ag	TRPML1 inh	gsp antag	ClpP mod	Menin-MLL FL inh
COc1ccc(Cl)cc1-c1n[nH]c(=S)n1C1CCCCC1	1%	1.4	-3	-3%	-3.7%	0.9
COc1ccc(C2=NOC(C(=O)NCc3cccs3)C2)cc1 (configuration not stated)	-11%	-0.8	8	2%	-0.7%	1.8
CCOCCCNC(=O)c1c[nH]c2cc(OC)ccc2c1=O	4%[15.4 µM]	0.2	9	-16%	1.2%	-2.6

(more compounds)
canonical_smiles	gsp agonist	TRPML1 ag	TRPML1 inh	gsp antag	ClpP mod	Menin-MLL FL inh
CCCOC(=O)c1ccc(NC(=O)COC)cc1	23%	-0.9	4	5%	0.1%	-2.7
COC(=O)c1c(N2C(=O)CC(Sc3ccccc3C(=O)O)C2=O)sc(C)c1C (configuration not stated)	3%[15.4 µM]	-0.6	4	19%	.	0.5
Cc1ccc(C(=O)COC(=O)c2ccc(O)cc2)cc1	25%[15.4 µM]	4.3	24	4%	.	29
O=C(CCC1CCCN(C(=O)c2ccc3cc[nH]c3c2)C1)NCc1ccc(F)c(F)c1 (configuration not stated)	-54%[inhibitor]	-0.2	40	-8%	-19%	-3.8
